Screening results: PubChem, Center for Chemical Genomics, University of Michigan
CDC25B CDK2 inh = human CDC25B-CDK2/CyclinA binding inhibition | z-score (test concentration not listed) | hit rate 0.72% among 94,000 | P30305+P24941 | HTRF CDC25B-CDK2/CyclinA binding, anti-His/anti-Flag; stronger effect = higher value;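 note: score is relative to mean and SD of negative controls; strong numbers were not always called active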
TAR Tat displ = HIV-1 TAR-Tat binding disruption; HIV-1 TAR RNA, Tat peptide displacement FRET; stronger effect = higher value; z-score (test concentration not listed); hit rate 0.6% among 100,000;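 note: score is relative to mean and SD of negative controls; some compounds called inactive have numbers as strong as hits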
Starred values were filed as active, the others as inactive; / = no result given; & = joins results of further samples.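 Rule for the calls: active = z-score from 3 up in half or more of its runs; inactive = the rest.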

canonical_smiles	CDC25B CDK2 inh	TAR Tat displ
CCc1cc2c(N3CCC(C(=O)NC4CCCC4)CC3)ncnc2s1	/	0.44
Cc1ccc(S(=O)(=O)Oc2cc(=O)n(-c3ccccc3)c3c2c(=O)n(C)c(=O)n3C)cc1	-1.2	/
CCCCC(=O)NCCc1cc2c(OC)ccc(OC)c2[nH]c1=O	-1.3	/
NC(=O)c1ccccc1NC(=O)c1c(-c2ccccc2)c(-c2ccccc2)n[nH]c1=O	-0.83	0.39
COc1ccc(-c2cc3nccc(-c4ccc5c(c4)N(C)C(=O)CO5)n3n2)cc1	10	0.95
Fc1ccc(-n2ncc3c(N4CCCc5ccccc54)ncnc32)cc1	/	1.2
COC(=O)/C(C#N)=C\c1cc([N+](=O)[O-])ccc1N1CCOCC1	-2.2	/
CC1=C(C(=O)Nc2ccc(C(=O)NC(C)Cc3ccco3)cc2)SCCO1 (configuration not stated)	/	0.63
Cn1c(=O)c2c(SCC(=O)OCc3ccccc3)nc(-c3ccco3)nc2n(C)c1=O	-1.6	/
CC(=O)N[C@@H](CC(=O)O)C(=O)O	/	0.81
CC(C)(C)c1ccc(-c2nnc(SCC(=O)N3CCCC3)o2)cc1	1.1	2.4
CCCCNC(=O)CCSc1nc(-c2ccc3c(c2)OCO3)cc(C(F)(F)F)n1	-1.6	1.1

Following part.
canonical_smiles	CDC25B CDK2 inh	TAR Tat displ
COCCn1c(SCc2ccccc2)nnc1-c1c[nH]c2ccccc12	-1.7	/
O=C1CCN(c2ccc(Cl)cc2)N1	-0.15	/
O=c1ccc(C(F)(F)F)c[nH]1	-1.7	/
COc1cccc(NC(=O)c2cnc3sc4c(n3c2=O)CCCC4)c1	/	0.93
FC(F)(F)c1ccc(-c2n[nH]c(=S)n2Cc2ccco2)cc1	-1.3	/
CCN(CC)Cc1cc(C2C3=C(CC(C)(C)CC3=O)OC3=C2C(=O)CC(C)(C)C3)ccc1OC	-0.58	/
CC(=O)N1CCC2(CC1)OC(=O)C(C)=C2C(=O)N1CCC(C)CC1	/	0.96
CN(C(=O)Cn1c(=O)oc2cc(S(=O)(=O)N3CCCCC3)ccc21)C1CCCCC1	0.05	0.67
CC(C)CCn1c(=O)c2cccnc2n(CC(N)=O)c1=O	0.7	1
CC(c1ccccc1)N1CCn2c(nc3cccc(Cl)c32)C1 (configuration not stated)	-1.7	-9.2
Cc1cc(-c2ccc(C)c(S(=O)(=O)NCc3ccc(Cl)cc3)c2)on1	/	0.56
CCOC(=O)c1c(NC(=O)C2Cc3ccc(C)cc3C(=O)O2)sc2c1CCCC2 (configuration not stated)	0.08	-0.49

The results go on:
canonical_smiles	CDC25B CDK2 inh	TAR Tat displ
O=C(CC1=NS(=O)(=O)c2ccccc2N1)Nc1ccccc1	/	0.08
Cc1nc(CSc2nnc3c(C)cc4ccccc4n23)cs1	-0.91	/
O=C1/C(=C/c2ccc3c(c2)OCO3)CCCc2ccccc21	0.22	/
CCC(=O)N1c2ccc(S(=O)(=O)N3CCCCC3)cc2CC1C(=O)NCCC1=CCCCC1 (configuration not stated)	/	2.1
Clc1ccc(CCNc2nc(-c3ccccc3)no2)cc1	/	-0.31
CCCCn1c(COc2cccc(OC)c2)nc2ccccc21	0.88	-0.74
Cc1cccn2c(=O)c3cc(C#N)c(=O)n(C)c3nc12	-1.6	-0.66
COc1ccc(NC(=O)CSc2nc3ccccc3c(=O)[nH]2)cc1OC	/	0.82
Cc1ccc(NC(C)(C)c2nnnn2-c2c(C)cccc2C)cc1	/	1.5
O=S(=O)(NCc1ccc2c(c1)CCO2)c1ccccc1	-1.1	/
O=C(NCCC1=CCCCC1)c1csc2c1CCCC2	-3	-1.3
CC(C)OCCCNc1ncnc2onc(-c3ccc(F)cc3)c12	/	0.3

Later entries.
canonical_smiles	CDC25B CDK2 inh	TAR Tat displ
CC(C)NC(=O)NNC(=O)c1cccc(COc2ccc(C3SCCS3)cc2)c1	-1.2	/
Cc1nnc2c3ccccc3nc(Nc3ccc(F)c(Cl)c3)n12	/	0.69
Cc1ccc(-c2cc(C(F)(F)F)n3ncc(C(=O)OCCN4CCOCC4)c3n2)cc1	0.4	2.8
CCOCc1nc(N2CCCC2)sc1C(=O)NCCc1ccco1	/	-0.52
COc1ccc(NC(=O)N2CCC(C(=O)O)CC2)cc1OC1CCCC1	-3.2	/
Cc1cc(C)c2c(=O)cc(C(=O)Nc3nc4ccc(S(C)(=O)=O)cc4s3)oc2c1	-1.9	-1.7
CC1=C(C(=O)Nc2cc(F)ccc2F)C2(CCN(C(C)C)CC2)OC1=O	/	0.73
COCc1cc(C)nc(SCC(=O)Nc2cc(Br)cc3cccnc23)c1C#N	1.1	/
CN1CCN(c2nc3c(c(=O)[nH]c(=O)n3C)n2CC(=O)c2ccc(Cl)cc2)CC1	-0.08	/
CCOC(=O)Oc1ccc2c(=O)c(-c3ccc(OC)c(OC)c3)c(C(F)(F)F)oc2c1	-2.2	0.46
CCn1nc(C)c(CNS(=O)(=O)c2ccc3c(c2)oc(=O)n3C)c1C	/	-0.98
CCCNC(=O)C(CC)n1nc(C)c2sc3ccccc3c2c1=O (configuration not stated)	-2.3	1.4

Continuation:
canonical_smiles	CDC25B CDK2 inh	TAR Tat displ
Cn1cnc2c(=O)oc3ccc(S(=O)(=O)NCC4CCCO4)cc3c21 (configuration not stated)	/	0.33
CCCCN(C1CCN(CC)CC1)S(=O)(=O)c1csc(C(N)=O)c1	/	1.4
O=C(NC1CCCCC1)c1ccc2c(c1)CCN2S(=O)(=O)c1ccc(Br)cc1	-0.02	0.85
CCCNC(=O)Nc1ccc2c(c1)N(CC)C(=O)c1ccccc1S2	0.84	-0.03
COc1cccc(-c2ncnn2-c2sc3c(c2C#N)CCCCC3)c1OC	0.46	-0.15
COc1cc(C2SC(C)C(=O)N2CCc2ccccc2)cc(OC)c1OC (configuration not stated)	0.36	/
COc1ccc(C(=O)C[n+]2cc(-c3ccccc3)n3c2CCC3)cc1	-0.96	1.4
CCN(CC)S(=O)(=O)c1cc(-c2ccc(=O)n(CC(=O)c3ccc(C)cc3)n2)ccc1C	-0.51	1
Cc1ccc(NS(=O)(=O)c2ccc(-n3cccn3)cc2)cc1C	/	2.4
COc1ccc(C2Nc3c(C)cc(C)cc3-c3cc(C)nn32)c(OC)c1 (configuration not stated)	-1.2	0.87
Cc1ccc(C(=O)C(C)n2nc(-c3ccc(C)c(S(=O)(=O)N4CCOCC4)c3)ccc2=O)cc1C (configuration not stated)	-1.9	1.2
CC(C)CCn1c(N2CCOCC2)nc2c1c(=O)[nH]c(=O)n2C	1.3	0.95

Reprinted from the part before: two entries, then new ones.
canonical_smiles	CDC25B CDK2 inh	TAR Tat displ
Cc1ccc(C(=O)C(C)n2nc(-c3ccc(C)c(S(=O)(=O)N4CCOCC4)c3)ccc2=O)cc1C (configuration not stated)	-1.9	1.2
CC(C)CCn1c(N2CCOCC2)nc2c1c(=O)[nH]c(=O)n2C	1.3	0.95
Cc1nc([N+](=O)[O-])cn1CCCOc1ccc(Cl)cc1	-0.31	/
NNC(=O)c1nccnc1N	-2.2	/
O=c1cc(CSc2nncn3c2cc2sccc23)nc2ccccn12	/	1.1
Cc1ccc(OCC(=O)OCc2cc(=O)n3ccsc3n2)cc1	/	0.63
COC(=O)C1=C(C)NC(C)=C(C(=O)OC)C1c1cccc(NC(=O)NCCCN2CCC(c3cccc(OC)c3)CC2)c1	-1.3	/
O=c1c(Nc2cccc(Cl)c2)c(-c2ccccc2)c1=O	/	-0.97
Nc1cc(-c2ccccc2)nn1S(=O)(=O)c1ccc(F)cc1	-1.5	1.8
Cc1ccc(SCC(=O)Nc2ccc(F)cc2F)cc1	0.23	/
COCCNc1oc(-c2ccc(COc3ccc(Cl)cc3)o2)nc1C#N	-2.7	0.31
CC1CC(C)CN(C(=O)c2cc3c(s2)-c2ccccc2S(=O)(=O)C3)C1 (configuration not stated)	-3	1.5
COc1cc(OC)cc(-c2nc(-c3cc4ccc(C)cc4[nH]c3=O)no2)c1	-0.08	0.42
CCO/C(C)=N/OC(=O)Nc1ccc(OC(F)(F)F)cc1	-1.3	/

No new results follow: an excerpt of the list.
canonical_smiles	CDC25B CDK2 inh	TAR Tat displ
COc1cc(OC)cc(-c2nc(-c3cc4ccc(C)cc4[nH]c3=O)no2)c1	-0.08	0.42
CCO/C(C)=N/OC(=O)Nc1ccc(OC(F)(F)F)cc1	-1.3	/

(next part)
canonical_smiles	CDC25B CDK2 inh	TAR Tat displ
CC(C)(C)c1ccc(-c2nc(NCCCN3CCOCC3)c3ccccc3n2)cc1	-2.9	-0.84
COCCc1nn2c(=O)cc(COC(=O)c3cccs3)nc2s1	/	0.41
Clc1ccc(CNCCCSc2nnnn2-c2ccccc2)cc1	-0.84	-0.46
c1ccc(-c2cc3ncc4c(n3n2)-c2ccccc2OC4)cc1	1.5	-0.57
CSc1c(C#N)c(-c2ccc(Cl)cc2)nn1C(=O)c1cccs1	-0.24	/
CCOc1cc(C2C=C(C(=O)O)Nc3ncnn32)cc(Cl)c1O (configuration not stated)	-3.1	0.98
CCOC(=O)c1c(NC(=O)CCC(=O)OC)sc2c1CCC2	-0.27	2.7
COc1ccc(C2NC(=O)NC(O)(C(F)(F)F)C2C(=O)c2ccc(F)cc2)cc1OC (configuration not stated)	-1.2	/
Cc1ccc(CSc2nc3nc(C)cc(C)c3c(=O)[nH]2)cc1	-1.5	-1
Cc1cc(N2CCN(c3ccccc3)CC2)nc2ccccc12	-2	1.3
N#CC1=C(N)Oc2n[nH]c(-c3ccccc3)c2C12C(=O)Nc1ccc(F)cc12 (configuration not stated)	-0.95	0.23
Fc1ccccc1Cn1cc2c(-c3ccccc3)nnc-2c2cc3c(cc21)OCO3	-1.7	1.8

(continued)
Values in the order – CDC25B CDK2 inh	TAR Tat displ
- Cc1cc(C)cc(-n2nnc(-c3nc(-c4ccccc4F)no3)c2C)c1
  /	1.7
- Cc1noc(C)c1CCNC(=O)c1[nH]nc2c1CCc1ccccc1-2
  /	1.8
- CCC(C)(C)NC(=O)CS(=O)(=O)c1cccc2nsnc12
  /	1.5
- Cc1c(-c2cccs2)[n+](=O)c2c(n1[O-])CCC2
  -0.74	/
- CCOc1ccc(Oc2ncnc3sc(C)c(C)c23)cc1
  /	0.72
- CCOc1ccsc1NC(=O)Nc1cccc(C(F)(F)F)c1
  -0.73	/
- CCc1ccc(Oc2coc3cc(OC(=O)OC)ccc3c2=O)cc1
  2.9	0.31
- O=C(/C(=C/C(=O)c1cccs1)c1ccccc1)c1ccccc1
  0.64	/
- COc1ccc(NC(=O)C2CCCN2S(=O)(=O)c2ccc(-c3ccc(=O)[nH]n3)s2)cc1 (configuration not stated)
  /	0.98
- c1ccc(C2=NCCN=C2c2ccccc2)cc1
  4.7	/
- CSc1ncc(Cl)c(C(=O)Nc2nnc(SC)s2)n1
  -1.1	2
- Cc1ccc(Cn2cc(S(=O)(=O)c3ccc(F)cc3)c(=O)c3cc(F)ccc32)cc1
  -1.8	0.38
- CS(=O)(=O)N1CCC(N2CCOCC2)CC1
  /	2.3
- COc1ccc(OC)c(S(=O)(=O)NC(Cc2ccccc2)Cc2ccc(F)cc2)c1 (configuration not stated)
  /	1.6
- Cc1ccc(C)c2c(=O)cc(CSc3nnc(-c4cccc(F)c4)n3C)[nH]c12
  /	1.8
- Cc1ccc(-n2nnc(-c3nc(-c4ccccc4)no3)c2C)cc1Cl
  /	0.67
- O=C1CC(C(=O)Nc2ccc3c(c2)OCO3)SC(=Nc2ccccc2)N1 (configuration not stated)
  -1.8	3.2
- Cc1nc(N2CCOCC2)c2c(C(=O)NCc3ccco3)c(C)oc2n1
  /	0.38
- O=C1CCCN1CCCNc1nn2nnnc2c2ccccc12
  /	0.21
- Cc1cc2nc(CSc3nc4ccc(NC(=O)COc5ccccc5)cc4s3)cc(=O)n2o1
  /	0.33

Carrying on:
Values in the order – CDC25B CDK2 inh	TAR Tat displ
- Cc1ccccc1Nc1c(-c2cccc(Br)c2)nc2cnccn12
  0.12	/
- Cc1cc(C)cc(NS(=O)(=O)c2ccc(N3CCCC3=O)cc2)c1
  /	0.57
- CCCn1c(N2CCCCC2)nc2c1c(=O)[nH]c(=O)n2C
  -0.61	0.19
- Cc1cc(NC(=O)C2CCCN(c3ncnc4c3nc3n4CCCCC3)C2)no1 (configuration not stated)
  /	0.82
- CCN(CC)CCNC(=O)c1ccc(NC(C)=O)cc1
  -0.3	/
- CCC(C(=O)NCCCN1CCCC1=O)n1nc(C)c2sc3ccccc3c2c1=O (configuration not stated)
  -1.2	2.2
- O=C(NCCN1CCc2ccccc2C1)C1CCN(c2ncnc3c2nc2n3CCCCC2)CC1
  /	0.96
- NC(=NC(=O)c1cccc(Cn2cc(C(F)(F)F)ccc2=O)c1)c1ccc(Cl)cc1
  -1.5	/
- CC1(C)Cc2ccccc2-c2nc(-c3ccccc3)oc(=O)c21
  -2.1	/
- Cc1ccc(-c2cn3ccccc3n2)cc1NS(C)(=O)=O
  -0.53	-0.95
- CCCOC(=O)C1=C(C)NC2=C(C(=O)CC(C)(C)C2)C1c1ccccc1OCCC (configuration not stated)
  -2.6	0.97
- Cc1cc(C)cc(NC(=O)Nc2nnc(N3CCCCC3C)s2)c1 (configuration not stated)
  -1.5	1.7
- O=C(O)c1cc(=O)[nH]c2ccccc12
  -0.47&-0.25	0.63
- CCCCc1cc2c(s1)SCC(=O)N2CC(=O)NCc1ccco1
  /	0.98
- CN(C(=O)c1nn(-c2ccc(Cl)cc2)c(=O)n(C)c1=O)C1CCCCC1
  /	1.7
- Cc1cc(C(=O)O)c2ccccc2n1
  0.23	/
- Cc1ccc(C)c(N2CCN(c3c(-c4ccc(C(C)C)cc4)c(=O)c3=O)CC2)c1
  /	1.6

Some of the entries above in a different format.
Cc1cc(C)cc(NS(=O)(=O)c2ccc(N3CCCC3=O)cc2)c1
  CDC25B CDK2 inh: /	TAR Tat displ: 0.57
Cc1ccc(-c2cn3ccccc3n2)cc1NS(C)(=O)=O
  CDC25B CDK2 inh: -0.53	TAR Tat displ: -0.95
Cc1cc(C)cc(NC(=O)Nc2nnc(N3CCCCC3C)s2)c1 (configuration not stated)
  CDC25B CDK2 inh: -1.5	TAR Tat displ: 1.7
